TRPML1 ag = qHTS for Agonists of the Human Mucolipin Transient Receptor Potential 1 (TRPML1); AID 624414, 2012; 0.12% of 410,000 active; TRPML1-expressing cells, Ca2+ dye fluorescence, FDSS; host cell line not named in the record; reference of the full effect not given here; Mucolipin-1 (Homo sapiens), Q9GZU1; activation, % (no concentration beside the values); in the data active = activation above about 50%; inconclusive = about 30% to 50%; inactive = below about 30%; also: 0% is about no effect; the text of the record puts the active cut at 80%
Target sequence (Q9GZU1 whole entry, looked up): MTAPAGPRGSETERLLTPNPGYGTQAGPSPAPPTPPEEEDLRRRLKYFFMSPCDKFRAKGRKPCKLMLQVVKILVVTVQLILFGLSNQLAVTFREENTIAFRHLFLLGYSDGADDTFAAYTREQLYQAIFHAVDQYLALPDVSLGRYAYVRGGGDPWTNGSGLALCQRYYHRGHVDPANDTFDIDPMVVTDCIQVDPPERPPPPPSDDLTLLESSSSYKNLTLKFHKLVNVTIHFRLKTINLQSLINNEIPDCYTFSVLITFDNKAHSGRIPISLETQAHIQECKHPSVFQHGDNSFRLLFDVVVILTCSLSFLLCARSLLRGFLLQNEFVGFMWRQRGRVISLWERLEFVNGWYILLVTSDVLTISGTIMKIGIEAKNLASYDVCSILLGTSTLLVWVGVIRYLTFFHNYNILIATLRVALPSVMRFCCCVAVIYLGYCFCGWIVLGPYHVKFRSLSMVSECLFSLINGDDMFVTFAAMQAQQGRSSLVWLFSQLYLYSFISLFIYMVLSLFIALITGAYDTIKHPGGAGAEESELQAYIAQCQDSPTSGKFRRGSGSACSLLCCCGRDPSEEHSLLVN
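Kinetic FDSS Ca2+ read in Tet-induced TRPML1-DL cells (ABD Ca8 dye plus quencher, 45-90 min RT loading): baseline, then compound, then 110 s agonist window; EC80 agonist 54-4 at 4uM final added afterwards for a 110 s antagonist window.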
PINK1 expr mod = A Quantitative High throughput Screen to Identify Chemical Modulators of PINK1 Expression. Potency, µM (highest dose often 76.6 µM), without a hit: at the top dose activation (PINK1 increase), usual class: activators. 0.2% of 410,000 active. PINK1 immunofluorescence, high-content cytometry, 24 h. AID 624263, 2012; active = well fitted activation curve with a large enough effect; inconclusive = small, poorly fitted or top-dose-only effect; inactive = flat fitted curve, though single readings scatter; cell line not stated here;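 also: potency is read from the fitted curve at half-maximal effect; % of control where 0% means no effect; nearly all actives have a fitted effect of over 65% in size; a mitochondrial uncoupler was the plate control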
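Fluorescence from anti-PINK1 antibody, together with nuclear and cell stains, was scanned on a laser-scanning cytometer. Before staining, stable-line cells were incubated 24 hours with compounds at 5 concentrations; primary antibody 12 h at 10 degrees C.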
* marks the source's active call; other numbers are inactive results; ? = inconclusive. Not all compounds are listed (hit frequency here may not be typical).

SMILES | TRPML1 ag | PINK1 expr mod
Cc1ccccc1Nc1nn2c(=O)c3ccc(C(=O)NCC(C)c4ccccc4)cc3nc2s1 (stereo not drawn) | 1.8 | -3.0%
Cc1ccc(-c2cn(-c3ccc(Cl)cc3)c(S(=O)(=O)CC(=O)Nc3ccccc3)n2)cc1 | -0.2 | -1.0%
COc1ccc(NC(=O)C(=O)NCCc2ccc(OC)c(OC)c2)c(OC)c1 | 0.2 | 4.5%
Cc1nc(-c2ccc(F)cc2)sc1CCNC(=O)C(=O)Nc1ccc2c(c1)OCO2 | -0.2 | -0.3%
CCOc1ccc(S(=O)(=O)N2CCN(c3ccccc3)CC2)cc1C(N)=O | 1.0 | -2.1%
COC(=O)c1c(NC(=O)COc2ccccc2Cl)sc2c1CCC(C(C)(C)C)C2 (stereo not drawn) | -0.3 | 3.3%
Cc1cc(OCC(=O)Nc2cc(-c3nc4ncccc4o3)ccc2C)ccc1Cl | -1.0 | -1.1%
Cc1nc2nc(C)c(CCC(=O)NCc3cccc(Cl)c3)c(C)n2n1 | -0.2 | 1.2%
CCOc1cc(-c2ccc(OC(=O)c3ccccc3Cl)c(OC)c2)cc(=O)c2c(C)oc(C)c12 | 0.0 | 0.8%
COc1cccc(CNC(=O)c2ccc3oc(=O)n(Cc4ccccc4)c3c2)c1 | -0.4 | 1.1%
Nc1c(C(=O)Nc2ccccc2Cl)nnn1Cc1cccc(Cl)c1 | -0.8 | 7.7%
CCOc1ccc(C(=O)c2cn(CC(=O)Nc3ccc(C)c(Cl)c3)c3ccc(OCC)cc3c2=O)cc1 | -0.8 | -0.7%
CCCc1cc(N2CCN(c3ccccc3F)CC2)n2cnnc2n1 | -0.3 | -0.8%
Cc1ccc(NC(=O)c2ccc(CN3CC(=O)N4CCCCC4C3=O)cc2)c(Cl)c1 (stereo not drawn) | 2.8 | -0.6%
O=C(CNC(=O)c1ccc(Cl)cc1)OCc1cc(=O)n2nc(C3CCCCC3)sc2n1 | 1.1 | 1.4%
CN1CCN(CCCNC(=O)c2cnn(-c3ccccc3)c2-n2cccc2)CC1 | -0.1 | 3.2%
O=C(CCS(=O)(=O)c1cc2c3c(c1)CCN3C(=O)CC2)NCc1ccc(F)cc1 | -0.2 | -0.4%
COc1ccccc1CNC(=O)c1cc2c(s1)-c1ccccc1OC2 | 1.4 | -0.4%
CCc1ccc(NS(=O)(=O)c2ccc3[nH]cc(C(=O)NCc4ccc(C)cc4)c(=O)c3c2)cc1 | 2.2 | 4.7%
Cc1cc(NC(=O)Nc2nnc(N3CCCCC3)s2)ccc1Br | -0.7 | 2.4%
Cc1cc(S(=O)(=O)Nc2cc3c(cc2NCc2ccccc2)n(C)c(=O)n3C)ccc1F | -1.2 | 2.9%
Cc1ccc2oc3c(c(=O)c2c1)C(c1ccc(O)cc1)N(Cc1ccc2c(c1)OCO2)C3=O (stereo not drawn) | 0.4 | 16%
Cc1cn2c(=O)cc(COc3ccccc3NC(=O)c3ccccc3C)nc2s1 | -0.3 | 5.1%
COCCCNS(=O)(=O)c1cc(-c2onc(C)c2C)ccc1OC | 1.7 | 0.1%
CC(NC(=O)c1cc(Sc2ccc(F)cc2F)nc2ccccc12)c1ccccc1 (stereo not drawn) | 0.4 | 5.3%

Compound profiles, from the list above:
Nc1c(C(=O)Nc2ccccc2Cl)nnn1Cc1cccc(Cl)c1 is listed as TRPML1 ag = -0.8; PINK1 expr mod = 7.7%
Cc1nc(-c2ccc(F)cc2)sc1CCNC(=O)C(=O)Nc1ccc2c(c1)OCO2 is listed as TRPML1 ag = -0.2; PINK1 expr mod = -0.3%

(cont.)
SMILES | TRPML1 ag | PINK1 expr mod
COc1ccc(-c2nn(-c3ccccc3)cc2C2NC(=O)NC(C)=C2C(=O)OC(C)C)cc1Cl (stereo not drawn) | 3.3 | -5.2%
COc1ccc(NC(=O)c2ccc(NC(=O)CCS(=O)(=O)c3cccs3)cc2)cc1Cl | 0.0 | 0.4%
Cc1ccc(NC(=O)c2ccc(COc3ccccc3Cl)o2)cc1 | 0.0 | 3.3%
CCOc1ccc(CNC(=O)c2ccc3c(c2)nc2n3CCOC2)cc1OC | 0.3 | -0.9%
COC(=O)c1ccc(NC(=O)C(C)N2Cc3ccccc3C2=O)cc1 (stereo not drawn) | 0.2 | -0.7%
COc1cccc(C(=O)Nc2ccc(NC(=O)c3ccc(C(C)(C)C)cc3)cc2)c1 | 0.7 | 2.4%
COc1ccc(NC(=O)Cn2nc(C)c3c(C)n(-c4ccccc4)nc3c2=O)cc1OC | -1.1 | 2.1%
COc1ccc(-c2ccc(CNCCCSc3nnnn3C)o2)cc1Cl | -0.7 | -0.8%
COC(=O)c1ccccc1NS(=O)(=O)c1cc2c(cc1C)N(C)CCO2 | -0.6 | 0.9%
COc1ccc(NC(=O)Cn2c(=O)n(Cc3ccco3)c(=O)c3sc4ccccc4c32)c(OC)c1 | -0.7 | 3.9%
COc1ccccc1-c1c(C)nn2c(N3CCN(c4ccccc4)CC3)cc(C)nc12 | -0.7 | 1.3%
Cc1c(CCNC(=O)c2ccco2)sc2nc(-c3ccc(F)cc3)nn12 | -0.5 | 0.6%
CSc1ccc(CCNC(=O)c2c(C)nn(-c3ccc(F)cc3)c2-n2cccc2)cc1 | 2.8 | 2.5%
O=C(NCC(c1ccc2c(c1)OCO2)N1CCOCC1)C(=O)Nc1ccccc1 (stereo not drawn) | 0.7 | -0.8%
CNC(=O)c1ccc(NC(=O)COc2ccc(-c3nn(C)c(=O)c4ccccc34)cc2)cc1 | -0.4 | 2.6%
COC(=O)c1cc2oc(C)cc2n1Cc1cccc(Cl)c1 | 0.9 | 11%
CCCN1CCN(c2ncc3c(n2)CCN(Cc2ccc(OC)c(OC)c2OC)C3)CC1 | -0.5 | -1.1%
O=C(CSc1nc(-c2ccccc2)no1)N1CCCCC1 | -0.8 | -0.4%
CCN(CCC(=O)O)c1ccc(/C=C/c2ccnc3ccccc23)cc1 | ? | -0.4%
CC(C)Cc1nn2c(=O)cc(COC(=O)c3ccc(NC(=O)C4CCCCC4)cc3)nc2s1 | 0.4 | 1.6%
CCCSc1ncc(Cl)c(C(=O)Nc2c(C(=O)Nc3ccc(OC)cc3)oc3ccccc23)n1 | -0.4 | -1.3%
O=C(Nc1ccc(F)cc1F)c1ccc(-c2ccccc2)s1 | 2.4 | 4.8%
O=C(CCSCc1cnn(-c2ccccc2)c1-n1cccc1)NCc1ccccc1F | 1.7 | -0.2%
CCCCOc1ccc(CNC(=O)Cc2ccc(NC(=O)N3CCCCc4ccccc43)cc2)cc1 | -0.2 | -2.1%
O=C(O)c1c(Br)c(Br)c(Br)c(Br)c1C1c2ccc(O)cc2Oc2cc(O)ccc21 | 9.5 | 5.2%

Structures listed so far that have a thiophene ring, fused or not:
SMILES | TRPML1 ag | PINK1 expr mod
COC(=O)c1c(NC(=O)COc2ccccc2Cl)sc2c1CCC(C(C)(C)C)C2 (stereo not drawn) | -0.3 | 3.3%
COc1ccccc1CNC(=O)c1cc2c(s1)-c1ccccc1OC2 | 1.4 | -0.4%
COc1ccc(NC(=O)c2ccc(NC(=O)CCS(=O)(=O)c3cccs3)cc2)cc1Cl | 0.0 | 0.4%
COc1ccc(NC(=O)Cn2c(=O)n(Cc3ccco3)c(=O)c3sc4ccccc4c32)c(OC)c1 | -0.7 | 3.9%
O=C(Nc1ccc(F)cc1F)c1ccc(-c2ccccc2)s1 | 2.4 | 4.8%

Remaining list, next part:
SMILES | TRPML1 ag | PINK1 expr mod
COc1ccc(OC)c(NC(=O)CSC2=Nc3ccccc3C3=NC(CC(=O)NCc4ccc(F)cc4)C(=O)N23)c1 (stereo not drawn) | 2.4 | 2.8%
CCC(C)NC(=O)Cn1c(=O)n(-c2cc(OC)cc(OC)c2)c(=O)c2ccccc21 (stereo not drawn) | -0.7 | 0.0%
Cc1ccccc1CNC(=O)C1CCCCN1S(=O)(=O)c1ccc(F)cc1 (stereo not drawn) | 0.3 | 0.4%
COc1cccc(Cc2nc3ccccc3nc2SCC(=O)N2CCCc3ccccc32)c1 | 0.8 | -0.1%
CCC(Cn1nnc2ccccc2c1=O)NC(=O)Nc1cc(Cl)ccc1OC (stereo not drawn) | -1.2 | -0.9%
Cc1cccc(NC(=O)c2ccc3nc(C(C)C)oc3c2)c1C | 0.3 | 11%
Cc1cc(C)cc(NC(=O)C(Cc2ccccc2)NS(=O)(=O)c2ccc3c(c2)CCC(=O)N3)c1 (stereo not drawn) | -0.6 | 0.8%
CCOc1ccc(Nc2cc(C(=O)NCc3ccccc3Cl)c3ccccc3n2)cc1 | 3.1 | 9.2%
Cc1onc(-c2c(F)cccc2Cl)c1C(=O)Nc1ccc(OC(C)C)cc1 | 1.6 | 0.2%
COc1ccccc1/C=C(\C#N)c1nc(-c2cc3ccccc3oc2=O)cs1 | 1.8 | -0.3%
CC(C)(C)OC(=O)N1CCC(c2c(C(=O)N3CCCCC3)cnn2-c2ccc(F)cc2)CC1 | 0.3 | -2.2%
O=C(CN1C(=O)c2cccc3cccc1c23)Nc1ccccc1Br | 1.5 | 1.9%
CCc1nn(CC(=O)NCCN(CC)CC)c(=O)c2cc3occc3n12 | 0.1 | 3.9%
CC(C)c1ccc(Cn2c(COc3ccccc3)nc3ccccc32)cc1 | 2.9 | 3.2%
COc1ccc2cc(-c3nc(-c4ccc(N(C)C)cc4)no3)c(=O)oc2c1 | -0.4 | -0.4%
COC(=O)Cc1c(C)c2ccc3c(c2oc1=O)CN(Cc1ccccc1OC)CO3 | 0.5 | -0.9%
COc1cc(NC(=O)c2cc(C3CC3)nc3c2c(C)nn3-c2ccccc2)cc(OC)c1 | -0.5 | -0.2%
CCOc1ccc(C2C(=O)N(C3CCCCC3)CC(=O)N2Cc2ccc(F)cc2)cc1OC (stereo not drawn) | -0.3 | 1.2%
Cc1cccc(Nc2nnc(-c3ccc(C)c(S(=O)(=O)N4CCCCC4)c3)c3ccccc23)c1 | -0.3 | 0.3%
COC(=O)CC1Oc2ccc(Cl)cc2-n2cc(-c3ccc(F)cc3)nc21 (stereo not drawn) | 0.8 | 3.7%
COc1ccc(-c2cc(C(=O)NCCc3ccccc3)c3c(-c4ccccc4)[nH]nc3n2)cc1 | 1.1 | 0.5%
O=C1CC(c2ccccc2)c2c(n3ncnc3[nH]c2=O)N1 (stereo not drawn) | -0.6 | 1.4%
Cc1ccc(C)c(CN2C(=O)c3ccccc3S(=O)(=O)c3ccc(C(=O)N4CCN(c5ccccc5F)CC4)cc32)c1 | 1.6 | 2.1%
COc1ccc(-c2cc(-c3ccccc3)nc(SCC(=O)CC(=O)OC(C)C)c2C#N)cc1 | 0.9 | 0.0%
CCOC(=O)c1cc2c(=O)n3ccccc3nc2n(CCCOC)c1=NC(=O)c1c(-c2ccccc2Cl)noc1C | -0.6 | ?

Continuation:
SMILES | TRPML1 ag | PINK1 expr mod
CCc1nnc2c3ccccc3nc(Nc3ccccc3OC)n12 | -0.2 | -0.6%
Cc1ccc(Cl)cc1N1CCN(C(=O)CCCn2c(=O)[nH]c3ccc(Br)cc3c2=O)CC1 | 0.7 | 1.7%
Cc1cccc(N(C)C(=O)c2cc3c(=O)oc4ccc(C)cc4c3s2)c1 | 0.1 | 3.3%
COc1ccc(-c2noc(CN(C)S(=O)(=O)c3c(C)cc(C)cc3C)n2)cc1OC | 2.5 | 1.3%
CCOc1ccc(-c2cc(NC(=O)c3cccc(Cl)c3)c(C(=O)OC)s2)cc1 | -0.2 | 0.2%
COCCc1nn2c(=O)cc(COC(=O)c3ccc4c(c3)OCO4)nc2s1 | 2.1 | -0.3%
CSc1cccc(NC(=O)Cn2nc(C)c3sc4ccccc4c3c2=O)c1 | 0.7 | 1.3%
CCCCN(Cc1cccs1)S(=O)(=O)c1cc(-c2cc(C)no2)ccc1C | 6.3 | 1.8%
COc1ccc(-n2nc(C(=O)N3CCCC(C)C3)c3c4ccccc4n(C)c3c2=O)cc1Cl (stereo not drawn) | -0.6 | 2.0%
O=C(Nc1ccc(C(=O)OCc2cc(=O)n3nc(C4CC4)sc3n2)cc1)c1ccccc1 | 0.1 | 2.8%
CCOC(=O)C1CCN(C(=O)C2CCN(C3=NS(=O)(=O)C(c4ccc(C)cc4)=C3CC)CC2)CC1 | -0.3 | 3.1%
CC(C)CN(CCNC(=O)c1cc(-c2cccs2)nc2ccccc12)CC(C)C | 0.3 | 1.6%
CC(C)Oc1ccc(CNC(=O)c2ccc3nc(C(C)C)oc3c2)cc1 | -0.8 | 0.4%
O=C(COc1ccccc1-c1nc(-c2ccccc2)no1)Nc1ccc([N+](=O)[O-])cc1 | -0.3 | 1.3%
CC(=O)c1cccc(NC(=O)c2sc(-n3nc(C)c(CCC(C)C)c3C)nc2C)c1 | 2.6 | -1.5%
CC(=O)c1ccc(NC(=O)c2noc3c2CCc2ccccc2-3)cc1 | -1.0 | 1.3%
CC1=C(c2ccc(C)c(C)c2)S(=O)(=O)N=C1N1CCC(C(=O)N2CCCCC2)CC1 | 2.6 | 1.7%
COc1ccc(OC)c(CCNC(=O)c2c(C)nn(-c3ccc(F)cc3)c2-n2cccc2)c1 | 6.5 | 1.1%
CCOC(=O)c1ccccc1NC(=O)CN1CCCN(Cc2cccc(Cl)c2)S1(=O)=O | 1.9 | 0.2%

Screens as filed in PubChem BioAssay.
